Bst PK mod = Pyruvate Kinase | partly purified Bacillus stearothermophilus pyruvate kinase, luminescence ATP production; ribose 5-phosphate activator present at AC10 | Potency, µM | 51,000 compounds, 1.2% hits | AID 361, 2006; in the data active means potency below about 11 µM; inconclusive means mostly about 12 µM to 25 µM; inactive means weaker than that;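 the screen sought inhibitors and activators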;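 note: potency is the fitted concentration of half-maximal effect; scaled between full activation by ribose 5 phosphate and full inhibition by luteolin; about four in five hits inhibit and the cells do not say which; series up to 57 µM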
YjeE inh = qHTS Assay for Inhibitors of YjeE. purified YjeE, fluorescence polarisation of a bound ADP probe. AID 605, 2007. tRNA threonylcarbamoyladenosine biosynthesis protein TsaE (Escherichia coli (strain …. 71,000 compounds, 0.05% hits. Potency, µM; active = well fitted falling curve; inconclusive = weaker or top-dose-only fall, or a rising curve; inactive = flat or poorly fitted curve;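 note: top concentration of the series not given in the record; excess ADP was the control for the full effect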
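Fluorescence polarization of a BODIPY Texas Red–ADP probe (2 uM) bound to purified YjeE (10 uM) was read after 15 min room-temperature incubation with compounds. Loss of polarization marks inhibitors; ADP serves as titrated control.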
* hit, by the source's call; i = inactive; ? = inconclusive; nt = no result given. Only part of the results is shown, so the mix of outcomes need not match the whole.

Bst PK mod,YjeE inh,canonical_smiles
>57,i,CC(C)C(NC(=O)CNC(=O)OC(C)(C)C)C(=O)NCc1ccccc1 (centres undefined)
>26,nt,C[C@]12CC[C@@H]3c4ccc(O)cc4C(=O)C[C@H]3[C@@H]1CC[C@@H]2O
>57,i,Cn1c(SCC(=O)N2CCOCC2)nnc1-c1cccc(NC(=O)c2ccccc2)c1
>57,i,CCc1nnc(NC(=O)CSc2nnc(Cc3ccc(OC)cc3)o2)s1
>57,i,CCc1c(C)sc(NC(=O)c2cc(C)on2)c1C#N
nt,i,CC(C)COC(=O)Cc1c(O)c2ccccc2[nH]c1=O
>57,i,Cc1ccc(NC(=O)c2ccco2)cc1NC(=O)CSc1nnc(-c2cccs2)n1C
i,i,c1ccc(-c2cc3c(-n4cccc4)ncnc3o2)cc1
nt,i,O=C(c1ccc2nc(N3CCCCC3)sc2c1)N1CCN(Cc2ccc3c(c2)OCO3)CC1
nt,i,COc1ccc(C(=O)NCc2cn3cccc(C)c3n2)cc1OC
>57,i,CCC(C)NS(=O)(=O)c1ccc(OCC(=O)NCc2ccc3c(c2)OCO3)cc1 (centres undefined)
>57,i,C=CCN(C(=O)Cn1c(C(=O)OC)cc2oc(C)cc21)c1ccccc1
nt,i,O=C(O)CC(Cn1cnnn1)c1ccccc1 (centres undefined)
nt,i,Cc1ccc(-n2c(SCC(=O)NC3CCCCC3)nc3c(c2=O)SCC3)cc1
nt,i,O=C(O)[C@@H](Cc1c[nH]c2ccccc12)C(=O)NO
>57,i,COc1ccc(S(=O)(=O)NCCSCc2cccs2)cc1
i,i,O=C1c2ccccc2-c2ncnc3cccc1c23
nt,i,Nc1nc2ccccc2[nH]1
nt,i,Cc1ccc(-n2nc(C)c3cc(C(=O)O)sc32)cc1
>57,i,Cc1ccc(-c2ccc(=O)n(CC(=O)N3CCN(c4cccc(C)c4)C(C)C3)n2)cc1 (centres undefined)
>57,i,O=C(O)CC(C(=O)O)c1cn(Cc2ccccc2)c2ccccc12 (centres undefined)
>57,i,Cc1noc(/C=C/N(C)C)c1S(=O)(=O)N1CCCC(C(=O)NC(C)c2ccccc2)C1 (centres undefined)
nt,i,C=CCc1cc(/C=N/n2cnnc2)cc(OCC)c1O
nt,i,CN(C)c1ncc2nc(-c3ccccc3)c(=O)n(C3CC3)c2n1
>57,i,COc1ccc(-n2nnnc2SCC(N)=O)cc1
?,i,CC(=O)c1cccc(S(=O)(=O)N2CCC(n3nnc4cc(F)ccc43)CC2)c1
>57,i,CCOc1cc(C(=O)NC)cc(OCC)c1OCC
>11,i,Cc1ncc([N+](=O)[O-])n1CCO
>57,i,O=C(CSc1ncnc2c1oc1ccccc12)NCc1ccco1
i,nt,Cc1cc(-c2ccc(F)cc2)nc2cc(C(N)=O)nn12
nt,i,CCOC(=O)N1CCN(C2CC(=O)N(c3ccc(F)cc3)C2=O)CC1 (centres undefined)
nt,i,Cc1ccc2[nH]c(=O)c(CN(CCc3ccccc3)C(c3nnnn3Cc3ccco3)C(C)C)cc2c1 (centres undefined)
nt,i,CCOC(=O)C(C)Oc1cccc2c(=O)n(CC(=O)N3CCN(C(=O)OCC)CC3)ccc12 (centres undefined)
>57,i,CCOC(=O)c1cnc(Nc2nc3ccccc3o2)nc1CSc1nnc(C)s1
>57,i,CCCCCOc1ccc(N2C(=O)CC(N(O)c3ccccc3)C2=O)cc1 (centres undefined)
>57,i,Cc1cc(C)nc(SCCC(=O)N2CCOCC2)n1
>26,nt,CC12CN3CC(C)(CN(C1)C3c1ccc(Br)cc1O)C2 (centres undefined)
nt,i,COc1ccc(N(CC(=O)NCc2ccccc2OC)S(=O)(=O)c2c(C)nn(C)c2C)cc1
>57,i,O=C(O)CSc1nc2ccccc2o1
>57,i,Cc1cc(=O)n2nc(N3CCC(C(=O)N4CCN(C)CC4)CC3)sc2n1
>57,i,Cc1cc(C)n(-c2nc3nonc3nc2-n2nc(C)cc2C)n1
>57,i,Cn1c(C(=O)OC(C(=O)NC2CCCC2)c2cccnc2)cc2sccc21 (centres undefined)
nt,i,COc1ccc(S(=O)(=O)Nc2ccccc2C(=O)NC(C)C)cc1OC
>57,i,COc1ccc(N2CCN(c3ccc(NC(=O)C4CCCCC4)cc3C#N)CC2)cc1
nt,i,N[C@@]1(C(=O)O)CN[C@H](C(=O)O)C1
>57,i,CCN(C(=O)c1cc2cc(OC)ccc2oc1=O)c1ccccc1
nt,i,CN1CCN(c2cc(-c3ccoc3)ncn2)CC1
nt,i,COc1ccc(NC(=O)N2CC3(CCN(C(=O)c4cc(C(F)(F)F)cc(C(F)(F)F)c4)CC3)C2)cc1
nt,i,N#CCCn1c(=O)c(CCc2ccccc2)nc2cnc(Oc3ccccc3)nc21
nt,i,CCN(CC)c1ccc(/C=N/n2c(C)cc(C)cc2=O)cc1
>57,i,O=C1C(Cl)=C(NCCCN2CCOCC2)C(=O)N1CCc1ccccc1
>57,i,CCCCOC(=O)N1CCOCCOCCN(C(=O)OCCCC)CCOCCOCC1
>57,i,c1cncc(CSc2nnc(-c3cccnc3)n2Cc2ccco2)c1
>57,i,c1ccc(-c2cnnc(SCc3cn4cccnc4n3)n2)cc1
>57,i,C=CCn1c(SCC(=O)NCc2ccco2)nc2sc3c(c2c1=O)CCCCC3
>57,i,CC(NC(=O)c1cccs1)C(c1cccs1)N1CCN(Cc2ccccc2)CC1 (centres undefined)
>57,i,COC(=O)C1=C(CN2CCc3ccccc32)NC(=O)NC1c1cc(C)ccc1C (centres undefined)
>57,i,COC(=O)C1=C(C)N(C)C(=O)NC1c1cc(Cl)cc(Cl)c1OC (centres undefined)
nt,i,Cn1c(=O)c(-c2ccc(Cl)cc2)nc2cnc(Oc3ccccc3)nc21
nt,i,CC(C)N(Cc1nc(-c2ccccc2)no1)C(=O)COc1ccccc1

Continuation.
Bst PK mod,YjeE inh,canonical_smiles
nt,i,COc1cccc(-c2cc(NCc3ccccc3)ncn2)c1
>57,i,CC(C)c1ccc(-c2nc(N3CCOCC3)[nH]c(=O)c2C#N)cc1
nt,i,Cn1cccc1Cc1nnc(SCC(=O)Nc2ccc3c(c2)OCO3)n1-c1ccc(F)cc1
>57,i,COc1ccc(N(CC(=O)N2CCCCC2)S(=O)(=O)c2ccccc2)c(OC)c1
nt,i,O=C(Oc1ccccc1)N1CCC2(CC1)CCN(c1ccccc1)CC2
nt,i,CCS(=O)(=O)Nc1c(C(=O)O)[nH]c2ccccc12
>57,i,O=C(OCC#CCSc1nnc(-c2ccc(Br)cc2)o1)c1ccco1
>57,i,CCOC(=O)c1ccccc1NC(=O)CC(C)CC(=O)O (centres undefined)
>26,nt,COC(=O)C1=C(N)Oc2cc(C)[nH]c(=O)c2C1c1ccncc1 (centres undefined)
>57,i,CCc1ccc2nc(NC(=O)c3ccc4c(=O)[nH]c(CN5CCOCC5)nc4c3)sc2c1
nt,i,COc1ccc(-c2nc(CCNC(=O)c3ccco3)cs2)cc1OC
?,i,Cc1ccc(S(=O)(=O)Cn2nnnc2C(c2ccc(F)cc2)N2CCCCC2)cc1 (centres undefined)

Full records, looked up by structure. Order of screens: Bst PK mod | YjeE inh
CCOC(=O)c1ccccc1NC(=O)CC(C)CC(=O)O (centres undefined) across the screens: >57 | i
COC(=O)C1=C(N)Oc2cc(C)[nH]c(=O)c2C1c1ccncc1 (centres undefined) across the screens: >26 | nt

(list continues)
Bst PK mod,YjeE inh,canonical_smiles
>57,i,Cc1ccc(C(C)n2cc(C(=O)NCCN3CCN(C)CC3)nn2)cc1 (centres undefined)
nt,i,Cc1cc2oc3c(c(=O)c2cc1C)C(c1ccc(C(C)C)cc1)N(CCCN1CCOCC1)C3=O (centres undefined)
>57,i,CCOc1ccc(C2C(=O)N(C3CCCCC3)CC(=O)N2CC2CCCO2)cc1OC (centres undefined)
>57,i,CCOC(=O)c1cnc(SCC(=O)c2ccc3c(c2)OCCO3)nc1N
>57,i,COc1ccc2c(CC(=O)OCC(=O)c3ccc(F)cc3)coc2c1
nt,i,COC(=O)c1c(-c2ccc(C)cc2)csc1N
>57,i,Cc1ccc(S(=O)(=O)N2CCN(CCO)CC2)cc1-c1nnc2c3ccccc3c(C)nn12
>57,i,O=C(NC1CC2CCCC(C1)N2C(=O)NCc1ccccc1)C1CC1 (centres undefined)
nt,i,Cc1onc(-c2ccccc2Cl)c1C(=O)Nc1cnn(Cc2ccccc2)c1
nt,i,Cc1[nH]c2ccc(-c3n[nH]c(=S)n3C)cc2c1C
nt,i,NC(=O)CN1CCOCCN(CC(N)=O)CCOCC1
>57,i,NS(=O)(=O)c1ccc(NC(=O)CSc2ccccn2)cc1
>57,i,Cc1nc(NS(=O)(=O)c2cccs2)c2c3c(sc2n1)CCC3
>57,i,CC1CCc2cc(F)ccc2N1C(=O)c1ccc2c(c1)OCO2 (centres undefined)
>57,i,COc1ccc(NC(=O)NCCN2CCc3ccccc3C2)cc1
>57,i,CCC(C)(C)NC(=O)C(c1ccco1)N(C(=O)Cn1nnc2ccccc21)c1ccc2c(c1)OCO2 (centres undefined)
>57,i,Cc1ccc(CSc2nnnn2C)cc1
i,i,Nc1nnc(SCc2ccccc2Cl)s1
>26,nt,CCCCOC(=O)C(C)c1c(C)[nH]c(=S)[nH]c1=O (centres undefined)
nt,i,COc1ccc(OC)c(NC(=O)C2CC(C)=C(C)CC2C(=O)O)c1 (centres undefined)
nt,i,CC(C)(C)CC(C)(C)c1cc(O)c(O)c(CN2CCCCC2)c1
nt,i,COCCNc1ccnc(-c2ccccc2C(F)(F)F)n1
nt,i,Cc1c(NC(=O)c2ccc3c(c2)OCO3)cccc1-c1nc2ccccc2o1
i,nt,CNS(=O)(=O)c1cccc2nsnc12

Reprinted at random: three records from the list
Bst PK mod,YjeE inh,canonical_smiles
>57,i,COc1ccc(NC(=O)NCCN2CCc3ccccc3C2)cc1
>57,i,Cc1nc(NS(=O)(=O)c2cccs2)c2c3c(sc2n1)CCC3
i,nt,CNS(=O)(=O)c1cccc2nsnc12

The listing picks up, repeating the three entries before the break.
Bst PK mod,YjeE inh,canonical_smiles
nt,i,COCCNc1ccnc(-c2ccccc2C(F)(F)F)n1
nt,i,Cc1c(NC(=O)c2ccc3c(c2)OCO3)cccc1-c1nc2ccccc2o1
i,nt,CNS(=O)(=O)c1cccc2nsnc12
>57,i,C=CCSc1nc2c(c(=O)[nH]c(=O)n2C)n1CC
nt,i,CCCNC(=O)CS(=O)Cc1nc(-c2cccc(OC)c2)oc1C (centres undefined)
>57,i,COc1ccc(-n2nc(C(=O)Nc3ccc4c(c3)OCO4)c3ccccc3c2=O)cc1
nt,i,O=C(O)c1ccc(C(=O)Nc2cccc3ccccc23)c(C(=O)O)c1
>57,i,O=C(NCc1ccco1)c1ccc(COCC(F)(F)C(F)F)cc1
nt,i,On1c(-c2ccco2)nc2c1CCc1nonc1-2
>57,i,CCCNC(=O)Nc1cc(C)on1
nt,i,Cc1cc(-c2ccccc2)nc2cc(C(N)=O)nn12
>57,i,COc1cc(Cl)c(C)cc1NC(=O)COC(=O)c1cnc(C)cn1
>57,i,Cc1nnc2sc(-c3ccco3)nn12
>57,i,COc1cccc(OC)c1C(=O)Nc1ccc(N2CCN(S(C)(=O)=O)CC2)cc1
>57,i,CCCCCCNC(=O)c1c(N)n(/N=C/c2ccco2)c2nc3ccccc3nc12
>57,i,CC1(C)Cc2nc(-c3ccccc3)n3cnnc3c2CO1
>57,i,CN(C)CC(=O)N1c2ccccc2CCc2ccc(NC(=O)c3ccc(N)cc3)cc21
>26,nt,CCCCOc1ccccc1P(=O)(O)CP(=O)(c1ccccc1)c1ccccc1
>57,i,Cc1nn(C)c(C)c1CN(C)C(=O)c1cnn2c1NC(c1ccccc1)CC2C(F)(F)F (centres undefined)
>57,i,Cc1ccc(NC(=O)Cc2nc(CSc3nnc(-c4ccc5c(c4)OCO5)o3)cs2)cc1
nt,i,COC(=O)Nc1ccc(NC(C)=O)cc1
nt,i,CCOC(=O)N1CCN(C(=O)C2CCN(S(=O)(=O)c3cc(Cl)ccc3Cl)CC2)CC1
>57,i,NS(=O)(=O)c1ccc(CCNC2CC(=O)N(Cc3ccccc3)C2=O)cc1 (centres undefined)
>57,i,O=c1[nH]c(C2CCCN(S(=O)(=O)c3ccc(F)cc3)C2)nc2c1nnn2Cc1ccccc1 (centres undefined)
nt,i,CC(C)C[C@@H](CC(=O)N[C@H](CC(=O)N[C@@H]1CCNC[C@H]1C(=O)N[C@H](CC(=O)N[C@@H](CCC(=O)O)CC(=O)O)Cc1ccccc1)C(C)C)NC(=O)[C@@H]1CNCC[C@H]1N
>57,i,N#Cc1cccc(NC(=O)c2nc(-c3ccccc3)n(-c3ccccc3)n2)c1
nt,i,CCN(CC)CCn1c(-c2ccccc2)nc2c(NCCO)nc(C)nc21
nt,i,O=C(c1ccccc1)[C@H](Nc1ccc2ccccc2c1)c1ccccc1
>57,i,COc1cccc(NC(=O)N2CCN(Cc3nc4ccccc4c(=O)[nH]3)CC2)c1
>57,i,O=C1C2C3C=CC(C3)C2C(=O)N1c1ccncc1 (centres undefined)
>57,i,O=C(NCc1ccco1)C(C(=O)c1ccc(F)cc1)n1ccccc1=O (centres undefined)
>57,i,CCN(CC)C(=O)CSc1nnc(CCN)o1
>57,i,COc1cc(C(=O)NCCC(=O)NCCN2CCOCC2)cc(OC)c1OC
>57,i,O=C(OCC(O)C(O)COC(=O)c1ccccc1)c1ccccc1 (centres undefined)
